ClpP mod – qHTS Assay for Activators of ClpP; ATP-dependent Clp protease proteolytic subunit (Bacillus subtilis (strain 168)), P80244; purified B. subtilis ClpP, FRET peptide cleavage, 20 min; Potency, µM (series often up to 57.5 µM), for the others: top-dose activity change, negative = active; hit rate 1.9% among 340,000; AID 651965, 2013; active = well fitted falling curve with a large enough effect; inconclusive = small, poorly fitted or top-dose-only effect; inactive = no such curve, though single readings can be large or run the other way; further: potency means the concentration at half of the fitted maximal effect; the source files actives as falling curves though it sought activators and does not explain the sign; nearly all actives have a fitted effect of over 65% in size; many hits overshoot -100%
Target sequence (P80244 whole entry, looked up): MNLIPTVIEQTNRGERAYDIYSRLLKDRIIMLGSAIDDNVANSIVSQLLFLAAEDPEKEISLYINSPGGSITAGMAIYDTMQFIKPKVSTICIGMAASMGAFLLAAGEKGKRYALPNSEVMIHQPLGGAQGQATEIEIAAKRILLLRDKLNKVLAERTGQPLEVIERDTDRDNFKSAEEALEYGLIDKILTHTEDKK
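ClpP 10 microg/mL final, pH 8 Tris/KCl buffer with BSA, glycerol, Tween-20; compound pinned in; FRET-FV substrate; RT 20 min; Ex320/Em430; ΔFRET vs ADEP 5.8 microM, DMSO, no enzyme.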
TRPML1 blocker – qHTS for Inhibitors of the Human Mucolipin Transient Receptor Potential 1 (TRPML1) | Mucolipin-1 (Homo sapiens), Q9GZU1 | TRPML1-inducible cells, Ca2+ dye fluorescence, FDSS; hits give low values; inhibition of EC80 agonist-evoked calcium signal | activity change, negative = inhibition, % (concentration not given with the values) | hit rate 0.02% among 390,000 | AID 624415, 2012; in the data active means activity change below about -50%; inconclusive means about -30% to -50%; inactive means above about -30%;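 further: stimulus is agonist 54-4 at its EC80 concentration; on the % scale 0 is the no-effect control and ±100 the full control effect; compound concentration not given in the record; the text of the record puts the active cut at -80%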
Target sequence (Q9GZU1 whole entry, looked up): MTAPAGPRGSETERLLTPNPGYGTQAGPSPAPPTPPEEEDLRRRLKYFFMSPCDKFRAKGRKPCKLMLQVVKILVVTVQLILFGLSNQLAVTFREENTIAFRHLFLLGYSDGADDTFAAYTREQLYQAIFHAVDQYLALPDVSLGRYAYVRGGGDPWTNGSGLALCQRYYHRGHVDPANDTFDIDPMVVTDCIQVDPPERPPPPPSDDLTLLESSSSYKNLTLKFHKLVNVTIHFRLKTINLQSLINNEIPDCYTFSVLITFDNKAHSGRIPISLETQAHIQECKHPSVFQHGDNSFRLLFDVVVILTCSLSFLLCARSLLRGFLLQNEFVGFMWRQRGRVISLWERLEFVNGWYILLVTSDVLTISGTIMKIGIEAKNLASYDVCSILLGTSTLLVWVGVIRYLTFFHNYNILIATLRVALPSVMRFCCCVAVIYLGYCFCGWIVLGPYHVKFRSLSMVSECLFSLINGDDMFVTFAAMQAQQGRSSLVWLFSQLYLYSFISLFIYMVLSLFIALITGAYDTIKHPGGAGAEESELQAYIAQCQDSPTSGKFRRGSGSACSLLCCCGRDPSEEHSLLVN
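Calcium fluorescence in TRPML1-DL cells induced overnight with Tet: a 110 s read after compound pin addition, then a 110 s antagonist read after challenge with 54-4 at 4 uM final (EC80).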
Menin MLL FP FL – qHTS Assay for Inhibitors Targeting the Menin-MLL Interaction in MLL Related Leukemias: Competition With Fluorescein Labeled MLL-derived Peptide | 290,000 tested, under 10 active | Fluorescence polarization, fluorescein-MLL peptide displacement from menin | FP activity change, % at 61.4 µM; inconclusive = falling polarisation curve, or a change in total fluorescence; inactive = total fluorescence flat and polarisation flat or rising; no compound was filed as active; the % refers to the polarisation; negative = inhibition;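 further: % of control where 0% means no effect; inhibitors lower the polarisation; unlabelled MLL peptide was the positive control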
Sfp inh – qHTS Assay for Inhibitors of Bacillus subtilis Sfp phosphopantetheinyl transferase (PPTase) | Biochemical Sfp PPTase activity, qHTS | Potency, µM, for inactives: max response, negative = inhibition, actives largely listed as inhibitors | hit rate 3.5% among 310,000 | AID 1490, 2009; active means well fitted inhibition curve with a large enough effect; inconclusive means small, poorly fitted or top-dose-only effect, or another doubt; inactive means no such curve, though single readings can be large or run the other way;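 further: the enzyme is Sfp with the accession as filed and its product quenches rhodamine fluorescence; potency means the concentration at half of the fitted maximal effect; 0% = enzyme reaction without inhibitor and -100% = no enzyme wells; top concentration of the series not given in the record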
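With Hepes-Na pH 7.6 buffer containing 10 mM MgCl2, Sfp (15 nM) modified BHQ-2-YbbR (12.5 uM) using rhodamine-CoA (5 uM). Two reads 30 minutes apart at 525/598 nm yielded each well's rate.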
TRPV1 potentiator – HTS Assay for Compounds that Act as Potentiators of the Vanilloid Receptor 1; Transient receptor potential cation channel subfamily V member 1 (Homo sapiens), Q8NER1; potentiation, % at 8.33 µM; TRPV1-expressing cells, Fluo-8 calcium influx, capsaicin EC20 potentiation; host cell line not named in the record; control for the full effect not named in the record; hit rate 0.02% among 320,000; active means potentiation above 80%; inconclusive means 30% to 80%; inactive means below 30%; further: 0% is about no effect
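TRPV1-expressing cells were cultured overnight at 35.5C and loaded with Fluo-8 calcium dye for 40 to 90 min at room temperature. After a 10 s baseline, compound was added and calcium influx was read kinetically for 3 min (ex 480/em 520 nm).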
TRPML1 ag – qHTS for Agonists of the Human Mucolipin Transient Receptor Potential 1 (TRPML1). Mucolipin-1 (Homo sapiens), Q9GZU1. TRPML1-expressing cells, Ca2+ dye fluorescence, FDSS; host cell line not named in the record; reference of the full effect not given here. activation, % (no concentration beside the values). hit rate 0.12% among 410,000. AID 624414, 2012; in the data active = activation above about 50%; inconclusive = about 30% to 50%; inactive = below about 30%; further: 0% is about no effect; the text of the record puts the active cut at 80%
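Cells: TRPML1-DL, 1X Tet inducer, ~16 h at 37 degrees C/5% CO2. Dye: ABD Ca8 no-wash + quencher, 45-90 min RT. Read: 10 s baseline, compound add, 110 s agonist phase; 54-4 EC80 (4uM final), 110 s antagonist phase.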
PINK1 expr mod – A Quantitative High throughput Screen to Identify Chemical Modulators of PINK1 Expression; Potency, µM (series often up to 76.6 µM), without a hit: top-dose activation (PINK1 increase), hits mostly activators; hit rate 0.2% among 410,000; PINK1 immunofluorescence, high-content cytometry, 24 h; AID 624263, 2012; active = well fitted activation curve with a large enough effect; inconclusive = small, poorly fitted or top-dose-only effect; inactive = flat fitted curve, though single readings scatter; cell line not stated here;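 further: potency means the concentration at half of the fitted maximal effect; % of control where 0% means no effect; nearly all actives have a fitted effect of over 65% in size; a mitochondrial uncoupler was the plate control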
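Stable cell line treated 24 h with compounds at 5 concentrations (CCCP controls), then fixed and immunostained for PINK1 plus nuclear and cell stains; PINK1 immunofluorescence quantified by laser-scanning microplate cytometry.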
* = called active by the depositor; ? = inconclusive; / = not tested or not shown; [ ] = dose if it differs, or a comment. This is a random part of the collection. About 4.4% of those tested had a hit in this group.

Sequence of screens – ClpP mod, TRPML1 blocker, Menin MLL FP FL, Sfp inh, TRPV1 potentiator, TRPML1 ag, PINK1 expr mod
COc1ccc(-c2noc(N3CCC(C(=O)NCCCN4CC(C)CC(C)C4)CC3)n2)cc1 (stereo not drawn)
 : -0.8%, 57, 0.5, -2%, 22, 2.6, 0.9%
CCC[N+]1(CC#CCC(c2ccccc2)c2ccccc2)CCCCC1
 : /, 2, -6.5, 3%, 26, -0.2, 29%
CCCCNC(=O)Nc1ccon1
 : 0.1%, -2, -0.5, 2%, -13, -0.5, 1.2%
N#Cc1ccccc1Sc1ccccc1C(=O)OCC(=O)NC1CCCCC1
 : -3.9%, -8, 0.5, -13%, 20, 3.2, 6.9%
NNc1ccc(Cl)c(C(=O)O)c1
 : -3.2%, /, 8.0, -7%, 4, /, 0.1%
C=CC[C@]12CCc3sccc3C1N(c1ccc(C(=O)OCC)cc1)C2=O (stereo partly drawn)
 : -3.2%, -8, /, /, -15, 2.6, 2.7%
CSC1=NCCN1C(=O)Cc1cccc2ccccc12
 : 0.0%, 5, 1.8, 6%, ?, -0.2, 0.3%
O=C(COC(=O)c1cc(-c2cccs2)nc2ccccc12)c1ccc(Cl)cc1
 : ?, 2, /, /, /, 2.2, -0.1%
O=C(Cc1ccccc1)Nc1cccc(NC(=O)c2ccccc2)c1
 : 37%, -11, 0.1, 6%, -11, -0.5, 4.7%
Cn1c(-c2ccccc2)nc2cnccc21
 : -18%, /, -6.1, -6%, 2, /, 0.5%
CCCc1nc2c3ccccc3ccn2c1Cc1ccc(OC)cc1C
 : 2.4%, /, /, /, /, 0.9, ?
Cc1ccc(S(=O)(=O)NCC(c2cccnc2)N2CCOCC2)cc1 (stereo not drawn)
 : 0.2%, 15, -2.0, 4%, ?, -0.2, 0.6%
CCCN(Cc1ccccc1)C(=S)Nc1cccc(C)c1C
 : /, 5, -2.9, 8%, -7, -0.6, 9.1%
Clc1ccc(Cl)c(OCCN2CCOCC2)c1
 : -2.9%, -14, 0.4, 1%, -8, -0.2, 1.4%
COc1ccccc1N1CCN(C(=O)C2CCC(CNS(=O)(=O)c3ccc(NC(C)=O)cc3)CC2)CC1 (stereo not drawn)
 : -0.3%, 53, 1.9, 0%, -2, -0.3, -0.8%
Cc1ccc(CNC(=O)C(=O)Nc2c3c(nn2-c2ccc(F)cc2)CSC3)cc1
 : -1.3%, 5, /, /, /, -0.7, 16%
COC(=O)c1ccc(CNC(=O)COc2ccccc2Br)o1
 : 0.9%, 2, 1.2, 8%, -11, 0.5, -0.2%[38.3 µM]
CCN(CC)CCCNC(=S)N(CCCO)Cc1cc2cc3c(cc2[nH]c1=O)OCO3
 : 4.3%, -3, 0.7, -4%, -21, 0.2, 3.2%
O=C(Cn1cc[n+](CC(=O)c2ccc(Cl)cc2Cl)c1)c1ccc(Cl)cc1Cl
 : 0.8%, -7, 6.0, 8%, 20, 1.0, -1.9%
CCn1cnc2cc(NS(=O)(=O)c3ccc(C)cc3)ccc21
 : -0.7%, -7, -1.2, 15%, ?, -0.1, 2.5%[38.3 µM]
O=C(Nc1ccccc1C(=O)N1CCCC1)C1CCN(c2ncccn2)CC1
 : ?, 0, 2.1, 6%, 5, 1.7, ?
COc1ccc(NC(=O)COC(=O)C2CCN(C(=O)c3ccc(Cl)cc3)CC2)c([N+](=O)[O-])c1
 : /, 11, /, /, /, 1.2, -1.9%
COc1cc(C(C)=O)ccc1OCC(=O)Nc1cc(S(=O)(=O)N2CCOCC2)ccc1N1CCCC1
 : -0.1%, -5, /, /, /, 0.6, 1.7%
O=C(c1ccccc1)c1nn(-c2ccccc2)c2nnc(Cc3ccccc3)c(=O)n12
 : 1.4%, 42, -0.2, 1%, 2, 1.6, 1.3%[38.3 µM]
Cc1cc(C(=O)N/N=C2\CCCC(=O)C2)c(C)n1-c1ccccc1
 : 1.2%, -7, 0.1, 11%, -1, 0.4, 1.7%
COC(=O)CCSC(=S)N1CCOCC1
 : /, 0, -1.0, 31%[activator], 2, 0.3, 0.8%
O=C(N/N=C/c1ccco1)C1(O)c2ccccc2-c2ccccc21
 : 1.9%, 19, 2.5, 16%, -6, 0.1, -0.3%
CCC(CC)C(=O)Nc1cc(-c2cn3cccnc3n2)ccc1OC
 : ?, 1, /, /, /, 0.6, 0.2%
CCCC(=O)N1CCC1(C)C(=O)NS(=O)(=O)c1ccc(Cl)cc1 (stereo not drawn)
 : 0.8%, /, /, /, /, -0.7, 0.2%
COc1ccc2occ(C(=O)c3ccc(N=C(C)N(C)C)cc3)c2c1
 : -4.4%, 14, 2.6, 7%, 5, 0.0, -1.8%
CCN(CC)C(=O)c1cc(-c2ccc(Br)cc2)on1
 : -1.9%, 31, 6.9, 1%, -19, 0.6, 1.0%[38.3 µM]
COc1ccc(CN(C(=O)COc2ccccc2)c2ccccc2C(=O)O)cc1
 : 0.2%, -8, 0.0, 34%[activator], -13, 0.1, 1.1%
Cc1cc(-c2nc3ncccc3o2)ccc1NC(=S)NC(=O)C(C)C
 : /, 13, -0.6, 12%, 4, 1.5, 0.4%
CCOC(=O)N1CCC(N2Cc3cccc(C(=O)N4CC(C)CC(C)C4)c3C2=O)CC1 (stereo not drawn)
 : 0.4%, 34, 1.8, -14%, 9, 1.0, 4.7%
CC(=O)Nc1cc(C(F)(F)F)ccc1OCC1CCCO1 (stereo not drawn)
 : 0.5%, 14, 2.5, 2%, -12, -0.7, -1.5%
Cc1cc(C(=O)NCc2ccco2)c2ccccc2n1
 : /, -16, 3.2, 8%, -3, 0.2, 3.1%
CCOc1cccc(C(=O)Nc2cccc(-c3nnc(-c4ccc(C)cc4)o3)c2)c1
 : ?, -28, 3.5, 2%, -2, -0.5, -2.6%
O=C(Cc1nn[nH]n1)c1ccccc1O
 : 0.8%, 3, 6.4, -24%, -7, 0.7, 0.8%
CC(C)NS(=O)(=O)c1ccc(NC(=O)C(C)OC(=O)CCC(=O)c2cccs2)cc1 (stereo not drawn)
 : 1.4%, -12, /, /, 7, -0.5, 0.8%
CCOc1ccc(Nc2nc3ccccc3c(=O)s2)cc1
 : 0.3%, 13, -0.7, 22%, -12, 1.3, 0.7%
CC(C)CCNC(=O)CCc1nnc(COc2ccccc2)o1
 : /, 0, 3.3, 20%, -9, 0.7, 0.3%
COc1ccc(/C=C/C(=O)Nc2ccc(N3CCOCC3)cc2)cc1
 : 1.2%, -13, 0.8, 11%, -14, 0.3, 2.6%
CCn1c(C)cc(/C=C2/SC(=O)N(C(C)C(=O)OC)C2=O)c1C (stereo not drawn)
 : /, 18, 1.8, -7%, -21, -0.4, 2.4%
O=C(CSc1cccc2cccc(Cl)c12)NCc1cccs1
 : /, -2, 7.9, -11%, -1, -0.3, 1.0%
COc1cc(NC(=O)CSc2nc(=O)n(CCN3CCOCC3)c3c2CCC3)cc(OC)c1
 : -1.6%, 29, /, /, -3, 1.1, -1.2%
CCn1nnc(NC(=O)c2ccc(-c3ccccc3[N+](=O)[O-])o2)n1
 : /, -12, 2.2, 11%, ?, 0.3, 4.4%
O=C(Nc1ccc(Cl)cc1)c1cnc(-c2ccccc2)nc1-c1ccccc1
 : -4.3%, 10, 7.7, 5%, 4, 3.1, 0.8%
CCN(CC(=O)NCc1ccc(Cl)cc1)C(=O)COc1cccc(C(F)(F)F)c1
 : 1.1%, 1, /, /, -14, -1.3, -1.4%
Cc1cccc(NS(=O)(=O)c2cccc(C(=O)NCC(c3ccco3)N(C)C)c2)c1 (stereo not drawn)
 : -5.3%, 9, /, /, 10, 0.1, 0.7%
COc1ccccc1-c1nc(C#N)c(N2CCCCCC2)o1
 : 56%, -4, 2.3, ?, 24, 0.6, -1.0%[38.3 µM]
Cc1cnc(SCCc2ccncc2)nc1C
 : /, /, 3.1, 11µM*, -9, /, /
O=C1NN(c2cccc(Br)c2)C(=O)/C1=C\c1ccccc1
 : /, 17, 0.1, 79µM*, 1, -0.8, 2.7%
CC(C)(C)c1ccc(C(=O)N2CCC(C(=O)NC3CCCCCC3)CC2)cc1
 : /, -13, 3.6, 8%, -10, 1.8, -0.2%
O=C(C1CCN(S(=O)(=O)c2ccc(Br)cc2)CC1)N1CCOCC1
 : 0.6%, 12, /, 20%, -15, 0.1, -1.0%
O=C(CSc1nnc(Cn2c(=O)sc3ccccc32)n1CCc1ccccc1)N1CCCC1
 : 4.0%, 10, 0.4, 2%, -7, 0.2, 1.8%
O=C(Cn1ncc2c3ccccc3n(Cc3cccc(Cl)c3)c2c1=O)NCCCc1ccccc1
 : 1.1%, 25, /, /, /, 0.6, -0.2%
CCN(CC)CCNC(=O)c1ccc2c(=O)n3nc(Nc4ccccc4OC)sc3nc2c1
 : -1.6%, 1, /, /, /, 0.1, 3.4%
COc1ccc(N2CCN(C(=O)C3CCN(S(=O)(=O)c4ccccc4)CC3)CC2)cc1
 : /, 0, -2.1, 14%, -14, -0.2, 1.9%
COc1ccc2oc(-c3cccc(NC(=O)c4sc5c([N+](=O)[O-])cccc5c4Cl)c3)nc2c1
 : -2.6%, 27, /, /, /, 0.3, -1.2%
Cc1ccnc(N2CCCC(C(=O)Nc3cc(F)ccc3C)C2)n1 (stereo not drawn)
 : ?, 20, 3.3, 15%, -2, 2.0, ?

(list continues)
Sequence of screens – ClpP mod, TRPML1 blocker, Menin MLL FP FL, Sfp inh, TRPV1 potentiator, TRPML1 ag, PINK1 expr mod
O=C(CCC(=O)N1CCCC1)Nc1nnc(C2CCCCC2)s1
 : -1.5%, 29, 1.3, 3%, 16, 1.9, -2.9%
CCN(CC(=O)NC(C)C)C(=O)c1ccc(S(=O)(=O)N(C)c2ccccc2OC)cc1
 : -1.4%, 40, -0.3, 3%, 25, -1.0, -1.3%
COc1ccccc1NC(=O)c1sc2ncn(CC(=O)N3CCC(C)CC3)c(=O)c2c1C
 : 7.1%, 4, -2.3, 9%, -10, -0.6, 3.2%
Cn1cccc1C(=O)N1CCC[C@@]2(CCN(c3ccccc3)C2)C1
 : /, /, -0.3, -6%, /, /, 0.8%

Compound activity deposited in PubChem by National Center for Advancing Translational Sciences (NCATS).
